High-throughput results as filed in PubChem BioAssay.
gsp antag: antagonizes gsp, the McCune-Albright syndrome mutation. hit rate 0.4% among 340,000. gsp-mutant cells, cAMP HTRF, 30 min; control for the full effect not named in the record. Potency, µM (highest dose often 76.9 µM), without a hit: at the highest dose activity change, negative = inhibition, usual class: inhibitors; active = falling curve of any shape with a large fitted effect; inconclusive = falling curve, mostly with a smaller effect; inactive = flat or rising curve; cell line not stated here;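 also: intracellular cAMP measured with PDE inhibitor Ro 20-1724 present during compound exposure; potency is read from the fitted curve at half-maximal effect; % is scaled to controls: 0 for no effect and ±100 for the full control effect; nearly all actives have a fitted effect of over 65% in size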
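Measurement of cellular cAMP by homogeneous time-resolved fluorescence following a 30 min compound exposure at 37C. The PDE inhibitor […] was present throughout; the assay buffer was DPBS with 0.05% BSA and 0.005% Tween 20.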
TRPML1 inh: human mucolipin-1 channel inhibition; AID 624415; TRPML1-inducible cells, Ca2+ dye fluorescence, FDSS; hits give low values; inhibition of EC80 agonist-evoked calcium signal; Q9GZU1; hit rate 0.02% among 390,000; activity change, negative = inhibition, % (no concentration beside the values); in the data active means activity change below about -50%; inconclusive means about -30% to -50%; inactive means above about -30%;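 also: stimulus is agonist 54-4 at its EC80 concentration; % is scaled to controls: 0 for no effect and ±100 for the full control effect; compound concentration not given in the record; the text of the record puts the active cut at -80%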
Target sequence (Q9GZU1 whole entry, looked up): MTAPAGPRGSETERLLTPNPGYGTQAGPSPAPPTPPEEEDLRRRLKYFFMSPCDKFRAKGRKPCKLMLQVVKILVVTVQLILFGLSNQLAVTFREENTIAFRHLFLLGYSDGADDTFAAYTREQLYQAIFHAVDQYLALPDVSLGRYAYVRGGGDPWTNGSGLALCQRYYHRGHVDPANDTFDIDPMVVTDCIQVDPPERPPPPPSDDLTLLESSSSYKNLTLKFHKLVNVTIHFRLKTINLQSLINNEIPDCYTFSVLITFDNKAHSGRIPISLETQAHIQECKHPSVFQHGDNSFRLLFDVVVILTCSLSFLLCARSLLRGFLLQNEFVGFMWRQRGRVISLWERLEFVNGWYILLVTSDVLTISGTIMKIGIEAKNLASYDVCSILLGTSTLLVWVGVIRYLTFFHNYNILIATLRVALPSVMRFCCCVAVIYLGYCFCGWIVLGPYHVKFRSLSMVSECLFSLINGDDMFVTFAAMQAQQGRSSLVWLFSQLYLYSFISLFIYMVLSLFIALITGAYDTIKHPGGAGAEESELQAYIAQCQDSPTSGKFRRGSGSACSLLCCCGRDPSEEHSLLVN
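Tet-induced TRPML1-DL cells loaded with Ca8 no-wash calcium dye were read kinetically on FDSS. Compound addition was followed by EC80 agonist 54-4 (4 uM final); inhibition was read over 110 s.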
gsp agonist: activates gsp, the McCune-Albright syndrome mutation; AID 624287; hit rate 0.13% among 340,000; Potency, µM (top dose mostly 76.9 µM), for the others: top-dose activation (cAMP increase), hits mostly activators; gsp mutant cells, cAMP HTRF, 30 min; control for the full effect not named in the record; active = well fitted activation curve with a large enough effect; inconclusive = small, poorly fitted or top-dose-only effect, or another doubt; inactive = no such curve, though single readings can be large or run the other way; cell line not stated here;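 also: phosphodiesterase inhibitor Ro 20-1724 added with compounds to block cAMP breakdown; potency is read from the fitted curve at half-maximal effect; nearly all actives have a fitted effect of over 60% in size; about a fifth of the inactives were tested at one dose only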
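Cells stably selected in G418 were plated at 2000/well, grown 16-24 hr, then given compounds in DMSO with the PDE inhibitor […] (300 uM solution added) for 30 min at 37C; cAMP was read by HTRF.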
TRPML1 ag: agonists of human TRPML1 channel. Q9GZU1. TRPML1-expressing cells, Ca2+ dye fluorescence, FDSS; host cell line not named in the record; reference of the full effect not given here. activation, % (concentration not given with the values). hit rate 0.12% among 410,000; in the data active = activation above about 50%; inconclusive = about 30% to 50%; inactive = below about 30%; also: 0% is about no effect; the text of the record puts the active cut at 80%
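Agonist activity was taken from a 110 s kinetic Ca2+ dye read on the FDSS after pinning compounds onto TRPML1-DL cells. The cells were seeded at 1,500/well with Tet inducer, incubated about 16 h, then dye-loaded at room temperature.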
Menin MLL FP FL: inhibitors of human menin-MLL interaction, wild-type MLL peptide. AID 1766. 290,000 tested, under 10 active. FP activity change, % at 61.4 µM. Fluorescence polarization, fluorescein-MLL peptide displacement from menin; inconclusive = falling polarisation curve, or a change in total fluorescence; inactive = total fluorescence flat and polarisation flat or rising; no compound was filed as active; the % refers to the polarisation; negative = inhibition;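 also: % of control where 0% means no effect; inhibitors lower the polarisation; unlabelled MLL peptide was the positive control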
ClpP mod: qHTS Assay for Activators of ClpP | ATP-dependent Clp protease proteolytic subunit (Bacillus subtilis (strain 168)), P80244 | purified B. subtilis ClpP, FRET peptide cleavage, 20 min | Potency, µM (top dose mostly 57.5 µM), inactives show at the highest dose activity change, negative = active | hit rate 1.9% among 340,000; active = well fitted falling curve with a large enough effect; inconclusive = small, poorly fitted or top-dose-only effect; inactive = no such curve, though single readings can be large or run the other way; also: potency is read from the fitted curve at half-maximal effect; the source files actives as falling curves though it sought activators and does not explain the sign; nearly all actives have a fitted effect of over 65% in size; many hits overshoot -100%
Target sequence (P80244 whole entry, looked up): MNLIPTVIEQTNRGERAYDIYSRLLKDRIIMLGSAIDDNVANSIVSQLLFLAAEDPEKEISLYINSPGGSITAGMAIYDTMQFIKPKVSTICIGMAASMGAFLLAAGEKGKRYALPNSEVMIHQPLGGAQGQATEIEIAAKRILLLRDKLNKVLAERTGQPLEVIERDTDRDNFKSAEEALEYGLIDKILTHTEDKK
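FRET quenching reversal measured ClpP activation: 10 microg/mL B. subtilis ClpP at pH 8 with the FRET-FV decapeptide, read at 430 nm after 320 nm excitation. The 20-min minus 0-min signal was scaled between DMSO/no-enzyme wells and ADEP (5.8 microM final).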
An asterisk follows results filed as active; ? = inconclusive; nt = not tested or not shown; & = joins results of further samples; [ ] = dose if it differs, or a comment.

SMILES	gsp antag	TRPML1 inh	gsp agonist	TRPML1 ag	Menin MLL FP FL	ClpP mod
CCO[C@H]1OC(C(=O)N2CCN(C)CC2)=C[C@@H](C(C)(C)C)[C@@H]1CCCO	10%	9	nt	0.2	-3.0	-1.6%
C#CCN(CC=C)C(=O)C1CCC(=O)N(CCCc2ccccc2)C1 (stereo not drawn)	10%	-8	25%	0.3	2.9	0.4%
CC1CCCCN1S(=O)(=O)c1ccc(N(C(=O)c2cnccn2)C(C(=O)NC2CCCCC2)c2cccs2)cc1 (stereo not drawn)	1%	-7	-17%	0.0	1.8	-2.7%
CCc1nnc(NC(=O)CSc2nnc(-c3ccc(OC)cc3)n2C)s1	-20%	1	-29%	-1.1	0.0	-0.4%
O=C(NCc1ccccc1)N(Cc1nc2ccccc2c(=O)[nH]1)C1CCCC1	-17%	16	6%	-0.9	1.8	14µM*
CCc1cccc(CC)c1NC(=O)C(Cc1ccccc1)NS(=O)(=O)c1cccc2nsnc12 (stereo not drawn)	nt	3	nt	1.1	nt	-6.6%
COc1cccc(CNC(=O)CSc2nnc(C)c3c(C)n(-c4ccccc4)nc23)c1	nt	5	nt	0.2	nt	-1.4%
CCCN(Cc1cc2cc(C)ccc2[nH]c1=O)S(C)(=O)=O	-1%	-1	10%	0.3	-1.7	-28%
COc1cc(CNCCSc2nnnn2C)ccc1OCc1c(F)cccc1Cl	nt	-10	nt	-0.3	nt	2.5%
CCC(C)(C)NC(=O)C(c1cccs1)N(C(=O)c1ccn[nH]1)c1cccc(OC)c1 (stereo not drawn)	1%	33	9%	3.7	-4.0	-2.6%
CCOc1cccc2sc(N(CCCN(C)C)C(=O)c3ccc(S(=O)(=O)N(C)Cc4ccccc4)cc3)nc12	5%	6	7%[15.4 µM]	1.6	0.8	39%
CCOC(=O)c1cc2c(=O)n3ccccc3nc2n(C(C)C)c1=NC(=O)c1c(-c2ccccc2Cl)noc1C	17%	-4	-4%[15.4 µM]	-0.9	-0.4	nt
COc1ccccc1OCC(O)CNCc1ccc2c(c1)OCO2 (stereo not drawn)	20%	15	-3%[15.4 µM]	-0.6	2.8	-0.9%
CCCCC1=CC2=CC(=O)C(C)(OC(=O)CC)C(=O)C2=CN1CCN1CCOCC1 (stereo not drawn)	2%	-1	nt	0.8	?	-1.9%
CN(C)CC/C=C1/c2ccccc2Sc2c(O)cc(Cl)cc21	1%[15.4 µM]	6	2%	1.8	?	-0.8%
Cc1cc([N+](=O)[O-])ccc1NCc1ccco1	4%	15	-13%	0.5	1.6	-0.9%
CC(C)(C)OC(=O)N1C[C@H](O)C[C@H]1C(=O)OCC(=O)c1ccc([N+](=O)[O-])cc1	7%	-15	-10%	-0.2	nt	-2.3%
O=C(C1=C[C@@H](c2ccc(Br)cc2)C[C@@H](OCCCCO)O1)N1CCN(Cc2ccccc2)CC1	-2%	-2	-5%	-0.4	4.6	-1.9%
O=C(O)c1ccc(N/N=C/c2cc3cc4c(cc3nc2Cl)OCCO4)cc1	?	-1	16%	1.3	?	-3.7%
NNC(=O)c1cc(S(=O)(=O)N2CCOCC2)c[nH]1	12%	-3	-12%	0.4	nt	0.1%
c1ccc(CCSc2nccn2-c2ccccc2)cc1	2%[15.4 µM]	8	-18%	3.1	3.4	-1.0%
Cc1cc2ccccc2n1CCNC(=O)C(C)(C)C	-1%	-1	?	0.5	-4.8	-5.1%
Cc1ccc(C(=O)N2CCC3(CC2)Oc2ccc(Cl)cc2C(=O)C32CC(c3cccnc3)=NO2)s1 (stereo not drawn)	?	-10	nt	-0.3	0.7	-2.6%
COc1ccc(CNC(=O)Nc2cn(CC(C)C)c(=O)c3ccccc23)cc1	nt	8	nt	1.0	nt	3.6%
CCCCCCCN=CC1=C(O)CC(c2ccccc2)CC1=O (stereo not drawn)	-12%	-17	?	1.0	-2.0	1.6%
COc1cc(C2C(=O)N(C3CCCCC3)CC(=O)N2Cc2ccc(C)cc2)ccc1OC(C)C (stereo not drawn)	nt	-17	nt	1.3	nt	-0.6%
CCCn1nc(NC(=O)CC(C)C)c2cc3ccccc3nc21	7%	26	8%	-0.4	3.7	-2.6%
CC1CCN(c2nnc(N)s2)CC1	13%	-24	12%	0.5	-4.2	-0.4%
Cn1c(=O)c2c(ncn2CC(=O)Nc2cc(Cl)cc(Cl)c2)n(C)c1=O	nt	7	nt	3.4	nt	-2.3%
CCc1ccc(NC(=O)CSc2cn(CC(=O)N3CCOCC3)c3ccccc23)cc1	nt	-2	nt	1.3	nt	3.8%
Cc1ccc2oc(=O)c3cc(C(=O)Nc4cccc(C#N)c4)sc3c2c1	nt	-14	nt	1.0	nt	3.8%
Cc1cc2c(C)nc(Cc3ccccc3)nc2o1	8%	10	-1%	0.3	3.9	1.3%
COC(=O)c1c(NC(=O)C(=O)NCCCN2CCOCC2)sc2c1CC(C)(C)OC2	5%	7	-24%	-0.5	3.2	-2.6%
CCC(=O)c1ccc(OCCn2cncn2)cc1	12%	0	-9%	1.6	1.0	0.6%
CC(=O)n1cc(/C=N/NC(=O)c2ccc([N+](=O)[O-])cc2)c2ccccc21	-22%	-1	-5%	-0.4	-6.7	0.4%
N#CCC(=O)NN=C1CCCCCCCCCCC1	11%	-13	1%	-0.3	1.8	0.9%
C=CCn1c(=NC(=O)c2ccco2)sc2cc(C(=O)OCC)ccc21	-2%	3	?	1.0	1.0	22µM*
O=C(Nc1ccccc1)OCCNC(=O)c1cccc(Br)c1	-7%	-4	-13%	2.3	-0.1	nt
Cc1ccc(Nc2c(-c3ccc(C)s3)nc3ncccn23)cc1	nt	29	nt	0.8	nt	0.2%
CC1CCN(C(=O)Cn2cc(SCC(=O)NCC3CCCO3)c3ccccc32)CC1 (stereo not drawn)	-1%	-2	10%[15.4 µM]	0.3	-1.8	nt
O=C(Nc1ccc(Cl)cc1F)c1ccc(COc2c(F)c(F)c(F)c(F)c2F)o1	-3%	-10	16%	0.7	2.6	-0.3%
COC(=O)Sc1nc(N2CCOCC2)c2c(c1C#N)CC(C)(C)OC2	15%	-1	14µM*	1.0	-2.5	-0.7%
CN(C)c1ccc(S(=O)(=O)N2CCCCC2)cc1NC(=O)CN1C(=O)NC(C)(c2ccccc2)C1=O (stereo not drawn)	-4%	11	0%[15.4 µM]	1.8	nt	0.7%
CCOC(=O)c1cc(NC(=O)c2ccccc2)c(=O)oc1-c1ccccc1	-13%	?	0%	2.2	-2.9	-16%
COc1ccc(C(CCN2CCCC2)c2c(O)cc(OC)cc2OC)cc1 (stereo not drawn)	11%	14&7	nt	0.4&-0.5	18&3.6	0.6%
Cc1cccc(C(=O)NC(C)C(=O)NC(c2nc3ccccc3[nH]2)C(C)C)c1 (stereo not drawn)	-6%	24	-2%	0.7	nt	-0.9%
CCCCn1cnc2cc(NCc3ccc(OCC)cc3)ccc21	nt	13	nt	2.1	nt	?
O=C(/C=C/c1cn(-c2ccccc2)nc1-c1cccnc1)N1CCCC1	?	45	-8%	2.2	0.6	-2.6%
OC(c1ccc(Cl)c(Cl)c1)c1ncc(-c2ccc(Cl)cc2)[nH]1 (stereo not drawn)	nt	-15	nt	-0.5	nt	-1.4%
COc1ccccc1CC(=O)N1CCCC1	7%	7	-18%	0.1	1.6	-0.2%
More structures.
SMILES	gsp antag	TRPML1 inh	gsp agonist	TRPML1 ag	Menin MLL FP FL	ClpP mod
O=C(COC(=O)c1ccc([N+](=O)[O-])cc1)Nc1ccccc1C(=O)NC1CC1	1%	-24	4%	0.4	nt	nt
c1ccc(-c2noc(CSc3nnnn3-c3ccccc3)n2)cc1	-15%	9	-12%	-1.0	5.6	-0.3%
CN(CC(=O)Nc1ccc(OC(F)F)cc1)S(=O)(=O)/C=C/c1ccccc1	-1%	-17	-21%	2.1	nt	-0.5%
CCOC(=O)N1CCc2c(sc3nc[nH]c(=O)c23)C1	-4%	-7	5%[15.4 µM]	-0.5	3.5	0.0%
CCCCn1cnc2cc(NC(=O)c3cc(OC)c(OC)c(OC)c3)ccc21	nt	1	nt	-0.4	nt	-1.1%
O=C(C1CCCO1)N1CCN(c2c3c(nc4cc(-c5ccc(F)cc5)nn24)CCC3)CC1 (stereo not drawn)	-1%	-5	9%	-0.5	2.0	?
C[C@@H]1CN([C@@H](C)CO)C(=O)CCCn2nncc2CO[C@H]1CN(C)C(=O)c1cc(-c2ccccc2)on1	nt	22	-270%[inhibitor]	0.0	nt	-1.2%
NNC(=O)c1nc[nH]c1C(=O)Nc1ccccc1[N+](=O)[O-]	-5%	1	21%[15.4 µM]	0.9	4.1	nt
COC(=O)c1sccc1NC(=O)CC1C(=O)NCCN1C(=O)c1ccccc1 (stereo not drawn)	4%	1	2%[15.4 µM]	-0.9	0.9	nt
O=C(c1cc2c(s1)-c1ccccc1S(=O)(=O)C2)N1CCCC1	-15%	nt	28%	nt	0.4	-5.9%
O=C(NCCc1csc(-c2ccc(Cl)cc2)n1)c1ccco1	-16%	-18&-7	?	-0.2&1.0	nt	-13%&-2.6%
O=C(NCCc1ccc(Cl)cc1)c1cc(-c2ccncc2)nc2ccccc12	-14%	nt	-5%	nt	1.0	-3.5%
Cn1c(SCC(=O)NCc2ccccc2)nnc1C1CC1	8%	-9	24%	0.2	-0.3	-4.2%
CCC(C)Sc1nc(O)c(Cc2ccccc2)c(=O)[nH]1 (stereo not drawn)	-9%	24	14%	0.0	-1.9	-0.1%
N#CN(Cc1ccccc1)Cc1ccccc1	5%	10	5%[15.4 µM]	1.6	-2.4	nt
O=C1CN(/N=C/c2ccc([N+](=O)[O-])o2)C(=O)N1	-2%	-2	nt	-0.1	4.1&4.5&-1.7	4.2%
Cc1c(NC(=O)Nc2ccc3c(c2)OCO3)cccc1[N+](=O)[O-]	-7%	-11	-1%	1.3	nt	-3.3%
Cc1cc2nc(CSc3ccc(Cl)cc3)cc(=O)n2[nH]1	-4%	32	-2%	-0.8	4.7	nt
NC(=O)c1ccccc1NC(=O)c1ccc2c(c1)OCO2	2%	-12	-23%	-1.2	-0.7	-0.2%
O=C(c1c(F)cccc1Cl)N1CCN(c2ccccn2)CC1	-3%	7	27%	-0.3	-1.9	nt
